# IEC-6 cytotox: counter-screen for KLF5 inhibitors: cytotoxicity in IEC-6 cells; AID 1825; inhibition, % at 5 µM; IEC-6 cytotoxicity, luminescence viability; 290,000 tested, 0.78% active; in the data active = inhibition above about 22%;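 also: 0% = plate median of test compound wells and 100% = cytotoxic reference compound wells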
# aSyn UTR inh: 5' untranslated region of α-synuclein, MLPCN primary screen; inhibition, % (tested at 7.5 µM); AID 1813; alpha-synuclein 5'UTR reporter, inhibitor activity; 300,000 tested, 0.82% active; in the data active = inhibition above about 60%; inconclusive = no clear call, values can overlap the other calls;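 also: H4 neuroglioblastoma cells stably carrying SNCA 5'UTR luciferase fusion; 0% = DMSO wells and 100% = positive control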
# HSP90 inh: blocks HSP90-mediated luciferase refolding in reticulocyte lysate; Rabbit reticulocyte lysate, luciferase refolding luminescence, 3 h; inhibition, % at 5.6 µM; 290,000 tested, 0.91% active; AID 1789;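 active = inhibition above the screen-wide mean plus 3 SD, computed separately per campaign, cut at about 16% in these data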;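 also: 0% = DMSO wells and 100% = 60 µM geldanamycin wells; inhibitors lower the luminescence because luciferase stays unfolded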
# KLF5 inhibitor: suppresses KLF5 promoter-driven expression; 290,000 tested, 0.23% active; inhibition, % at 5 µM; AID 1700; DLD-1 KLF5 promoter-luciferase reporter, luminescence;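 active = inhibition above a per-plate limit of that plate's mean compound inhibition plus 3 SD, cut at about 60% in these data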;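 also: 0% = DMSO wells and 100% = LY294002 at 200 µM; higher means less KLF5 promoter-driven luciferase light; inactives centre near -14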
# GSK3A inh: inhibitors of human GSK-3 alpha kinase; 320,000 tested, 0.1% active; P49840; inhibition, % at 10 µM; ADP-Glo luminescence, 60 min;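 in the data active = inhibition above about 50%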;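 also: GST-tagged GSK-3 alpha with peptide substrate and 25 µM ATP; 0% = DMSO neutral wells and 100% = GW8510 positive control wells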
# Target sequence (P49840 whole entry, looked up): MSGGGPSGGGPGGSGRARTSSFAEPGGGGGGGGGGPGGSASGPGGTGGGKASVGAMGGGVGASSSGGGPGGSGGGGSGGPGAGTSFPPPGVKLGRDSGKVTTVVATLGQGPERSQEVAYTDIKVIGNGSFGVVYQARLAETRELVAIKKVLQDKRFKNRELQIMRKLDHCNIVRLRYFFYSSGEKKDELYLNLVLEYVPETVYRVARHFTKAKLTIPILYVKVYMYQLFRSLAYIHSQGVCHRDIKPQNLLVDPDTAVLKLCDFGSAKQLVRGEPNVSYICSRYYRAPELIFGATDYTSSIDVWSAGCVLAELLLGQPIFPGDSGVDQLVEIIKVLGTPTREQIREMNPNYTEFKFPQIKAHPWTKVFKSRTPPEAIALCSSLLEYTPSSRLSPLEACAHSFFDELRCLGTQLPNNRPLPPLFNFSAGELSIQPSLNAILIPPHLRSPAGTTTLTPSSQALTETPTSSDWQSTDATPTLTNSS
# HSF-1 act: increases HSF-1 driven luciferase reporter signal; NIH3T3-HGL HSF-1 luciferase reporter, MG132, 8 h; 100% = twice DMSO control signal; activation, % at 9 µM; 300,000 tested, 1.7% active;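 active = mean replicate activation of at least 50% with a set share of replicates each reaching 50%; inconclusive = only one of those two conditions met; inactive = mean below 50% and too few replicates reaching it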;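 also: 0% = median of the neutral control wells and 100% = twice that signal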
# HSF1 inhib: HSF1 inhibition; NIH3T3-HGL HSE-luciferase, MG132-induced, luminescence 8 h; hits give low values; activity change, negative = inhibition, % at 7.5 µM (by protocol); 300,000 tested, 0.77% active; AID 2098;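 active = more than half of replicate wells show activity change below -50%, luminescence cut by over half; inconclusive = some wells, but at most half, below -50%; inactive = no replicate well below -50%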;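 also: luciferase reports HSF-1 transcriptional activity via heat shock element; 0% = median of DMSO wells and -100% = zero luminescence signal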
# Platelet DG rel: platelet dense granule release activity. human platelet-rich plasma, SFLLRN dense granule ATP release, luminescence. 300,000 tested, 0.22% active. inhibition, %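 (compounds screened at 7.5 µM in platelet-rich plasma)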. AID 1663;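 active = mean replicate score, as percent of positive control, at or above 50; inconclusive = mean below 50 but at least one replicate at or above 50; inactive = mean and every replicate below 50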
# GSK3beta inhib: human GSK3beta kinase inhibition | AID 2097 | P49841 | activity score (negative = inhibition), % at 10 µM | 300,000 tested, 0.038% active | GST-GSK3beta kinase, ADP-Glo luminescence, 60 min; hits give low values;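 active = more than half of replicate wells score below -50%, meaning over 50% inhibition versus plate controls; inconclusive = some replicates but at most half score below -50%; inactive = no replicate scores below -50%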;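 also: 0% = median DMSO wells and -100% = median GW8510 positive control wells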
# Target sequence (P49841 whole entry, looked up): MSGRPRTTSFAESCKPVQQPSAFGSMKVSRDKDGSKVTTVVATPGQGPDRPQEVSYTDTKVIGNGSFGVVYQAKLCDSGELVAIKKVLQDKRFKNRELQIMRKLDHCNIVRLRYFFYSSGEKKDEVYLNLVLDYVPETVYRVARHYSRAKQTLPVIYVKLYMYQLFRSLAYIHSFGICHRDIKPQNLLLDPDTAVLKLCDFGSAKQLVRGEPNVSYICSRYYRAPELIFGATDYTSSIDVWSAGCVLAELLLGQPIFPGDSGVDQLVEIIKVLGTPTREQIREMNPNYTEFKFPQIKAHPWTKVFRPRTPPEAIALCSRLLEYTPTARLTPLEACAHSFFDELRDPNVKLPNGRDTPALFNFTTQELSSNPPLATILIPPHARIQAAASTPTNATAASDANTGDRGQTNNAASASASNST
#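 Test system: GST-fused GSK3beta enzyme, cell-free | Quantity: 1.6 ng GST-GSK3beta enzyme per well | Reagent: 25 µM ATP with peptide substrate | Schedule: 60 min enzyme reaction, room temperature | Signal: Luminescent ADP-Glo measurement of ADP formed | Read-out basis: Score relative to plate controls | Control set: DMSO and 20 µM GW8510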
# * marks the source's active call; other numbers are inactive results; ? = inconclusive; nt = no result given.
SMILES,IEC-6 cytotox,aSyn UTR inh,HSP90 inh,KLF5 inhibitor,GSK3A inh,HSF-1 act,HSF1 inhib,Platelet DG rel,GSK3beta inhib
COCCn1nnnc1C(c1cc2cccc(C)c2[nH]c1=O)N1CCN(c2ccccc2F)CC1 (centres undefined),3.7,20.1,2.4,28.9,-0.6,4.8,-2.2,-2.9,-0.7
C#CCn1c(=NC(=O)CSCC(=O)N2CCOCC2)sc2ccccc21,3.0,19.5,0.4,-6.7,2.1,22.3,-1.6,6.0,1.4
c1ccc(-n2c(SCC3CCCCO3)nnc2-c2cccs2)cc1 (centres undefined),-7.0,0.4,0.1,9.2,-3.1,-2.5,-0.4,-4.8,1.7
Cc1ccc(/C=C2/Sc3ccc(C(=O)N4CCN(C)CC4)cc3NC2=O)cc1,8.4,-30.3,-1.6,-7.5,3.8,10.0,-2.6,-3.0,-3.7
CCOC(=O)[C@@H](C)NS(=O)(=O)N(Cc1ccccc1)[C@H](C(=O)OC)C(C)C,nt,nt,nt,nt,-4.1,nt,nt,nt,nt
O=C(O)c1ccc(NS(=O)(=O)c2ccc3c(c2)OCCO3)cc1,nt,-5.5,nt,nt,nt,-5.9,-4.0,-2.2,3.4
Clc1cccc(CSc2ncn(-c3ccccc3)n2)c1,-2.1,-67.1,3.0,-44.6,1.8,37.4,18.9,0.9,1.7
COC(=O)[C@H](C)NC(=O)Nc1cc(OC)ccc1OC,1.8,-5.3,-1.8,-4.8,-3.5,-0.3,-7.8,3.4,16.1
COc1ccc(S(=O)(=O)N2CCC(C(=O)NCc3ccccn3)CC2)cc1C,-6.5,5.8,0.1,9.8,0.9,-3.2,0.8,3.2,3.0
Cc1sc2ncn(CC(=O)NCCCC(=O)N3CCN(c4ccccc4)CC3)c(=O)c2c1C,-0.4,2.9,3.9,8.1,1.6,18.5,3.2,-2.1,-1.3
COc1ccc(CC(=O)Nc2ccc(-c3noc(-c4cccc(OC)c4)n3)cc2)cc1,4.3,26.0,5.8,-2.6,-3.6,5.3,8.3,2.6,-23.5
CCC(C)N=CC1=C(O)C(C(=O)OC)C(C)(C)CC1=O (centres undefined),-4.9,-11.7,-0.2,-35.9,1.7,7.4,-1.2,-6.0,1.5
CCC/C(O)=C1\C(=O)CC(C)(C)CC1=Nc1cccc([N+](=O)[O-])c1,-4.2,18.5,-3.3,-32.6,-2.6,-1.7,-6.2,-3.9,-1.9
O=C(Nc1cc(Cl)ccc1-n1cncn1)c1ccc(Br)o1,nt,31.1,nt,nt,2.0,-4.2,-2.3,-2.8,1.0
O=S(=O)(Nc1ccc2c(c1)OCCO2)c1ccc2oc3ccccc3c2c1,2.4,-29.3,5.0,1.6,-3.9,2.9,-0.6,-2.6,2.7
c1cncc(CNc2ncnc3ccc(-c4ccc5c(c4)OCO5)cc23)c1,nt,nt,nt,nt,4.1,nt,nt,nt,nt
CCCOc1ccc(N/C=C/C(=O)C(C)(C)C)cc1,-10.2,0.0,-2.8,6.8,0.0,-2.4,-19.4,-9.7,6.0
COc1ccc(S(=O)(=O)N2CCCC(C(=O)NCc3ccccn3)C2)cc1 (centres undefined),3.4,-18.0,3.1,-9.6,-1.5,-2.7,2.8,4.3,3.4
CCC1CCCCN1C(=O)Nc1cccc(NC(=O)N2CCCCC2CC)c1 (centres undefined),-0.2,10.3,7.3,-14.1,2.0,-38.6,-25.2,-15.4,3.4
COc1ccccc1Nc1nc(NCCCN(C)C)nc(N)c1[N+](=O)[O-],5.7,27.1,6.0,19.7,94.6*,-77.9,-73.0*,5.8,-82.8*

# Brought forward from above: 2 entries; new compounds follow.
SMILES,IEC-6 cytotox,aSyn UTR inh,HSP90 inh,KLF5 inhibitor,GSK3A inh,HSF-1 act,HSF1 inhib,Platelet DG rel,GSK3beta inhib
CCC1CCCCN1C(=O)Nc1cccc(NC(=O)N2CCCCC2CC)c1 (centres undefined),-0.2,10.3,7.3,-14.1,2.0,-38.6,-25.2,-15.4,3.4
COc1ccccc1Nc1nc(NCCCN(C)C)nc(N)c1[N+](=O)[O-],5.7,27.1,6.0,19.7,94.6*,-77.9,-73.0*,5.8,-82.8*
COc1ccc2[nH]c3c(=O)n(N)c(C)nc3c2c1,0.1,-21.6,-2.1,-7.6,1.9,-9.4,-0.7,-3.7,1.3
Cc1cccc(Nc2ncnc(N)n2)c1,-0.1,-9.4,-3.2,-37.6,3.0,8.7,2.5,5.8,-6.1
CC(C)CCNC(=O)[C@H](Cc1ccccc1)N1Cc2ccccc2C1=O,-4.8,21.5,3.9,-15.9,-1.2,7.5,-5.0,-5.6,-2.8
Cc1nc(N2CCN(C(=O)c3ccco3)CC2)c2c3c(sc2n1)CC(C)CC3 (centres undefined),2.6,-16.4,1.8,-5.9,-0.8,21.0,18.5,-0.1,-1.2
Cc1c(C(=O)Nc2ccc(Cl)cc2)c2ccccn2c1C(=O)c1ccccc1,3.2,-15.5,-3.5,-25.7,1.2,18.6,20.0,4.3,0.3
CCOC(=O)N1CCN(C(=O)c2cc(-c3ccc(OCC)cc3)nc3ccccc23)CC1,23.9*,-12.5,0.0,6.1,-1.3,78.8*,34.5,3.8,1.0
C=CCn1c(SCC(=O)Nc2cccnc2Cl)nnc1-c1ccccc1F,3.8,-17.9,-5.8,-13.9,-1.4,2.1,-9.0,-3.4,0.2
Cc1c(C(=O)O)sc2c1c(=O)n(Cc1ccccc1)c(=O)n2C,-0.1,18.5,7.4,-9.9,9.1,4.4,3.3,0.5,-1.5
COc1ccc(-c2cc(CNC(=O)CN3CCN(C)CC3)on2)cc1,7.4,-3.2,0.6,-26.5,-0.1,7.1,-0.1,7.7,0.2
CC(C)c1c(O)nc(SCCN(C)C)[nH]c1=O,-2.1,3.2,3.6,-9.5,-1.2,23.7,0.6,-2.8,-3.1
c1cncc(CNc2cccc(-c3nc4ccccc4[nH]3)c2)c1,7.9,-145.2,-9.2,-48.0,2.0,36.1,11.0,4.3,-0.8
COc1cccc(OCC(=O)NNC(=O)c2cccs2)c1,3.0,10.1,-2.5,-27.8,-2.0,-17.2,-9.8,-0.3,1.4
CC(C)Nc1ncnc2c1cnn2-c1ccccc1,6.0,-1.1,4.5,-178.8,6.2,9.6,0.5,11.4,-6.1
O=S(=O)(Nc1ccc(-c2nc3cccnc3s2)cc1)c1cccs1,-0.8,-89.3,5.3,-49.9,-2.5,-6.7,3.1,2.2,-4.1
CCCN(CCC)CCSc1nc(O)c(C(C)C)c(=O)[nH]1,-1.2,10.9,4.8,-2.8,-5.0,9.0,-2.0,3.8,2.4
Cc1nnc(NC(=O)CSc2nnc(CCNC(=O)c3ccccc3F)n2C)s1,-2.8,-4.3,2.1,-10.4,-0.6,-4.7,2.5,-3.6,-2.6
c1ccc(OCCCc2nc(-c3ccccn3)no2)cc1,5.9,-84.7,3.0,-52.8,-2.3,15.0,15.9,3.3,6.0
COc1ccc(-c2nnc(SC)o2)c(OC)c1,-4.3,-85.2,-3.9,-51.2,4.4,9.6,7.8,-3.4,-3.3
Cn1c(=O)c2c(nc(Cl)n2Cc2ccc(Cl)c(Cl)c2)n(C)c1=O,-6.3,-10.6,-1.6,-10.4,-4.2,-5.1,3.9,-10.2,-1.1
CC1(C)C2CCC1(C)C(NC(=O)/C=C/c1ccccc1)C2 (centres undefined),1.2,20.6,-2.3,-17.8,-0.9,5.6,11.2,0.6,-1.2
O=c1c2ccccc2n(Cc2ccc(Cl)cc2)c(=O)n1Cc1ccco1,-0.1,46.0,6.7,-9.4,1.5,-9.4,0.0,-0.1,0.9
COc1ccc(CCNC(=O)CSc2nc3[nH]ncc3c(=O)n2-c2ccccc2OC)cc1OC,-2.0,7.3,-2.9,-22.6,75.1*,-6.9,1.1,-1.2,5.6
CC(=O)N1CCc2c(sc(NC(=O)C3CCN(S(=O)(=O)c4cccs4)CC3)c2C(N)=O)C1,nt,-1.2,nt,nt,6.2,0.6,3.7,8.2,-8.5
O=S(=O)(c1ccc(Br)cc1)N1CCN(c2ccc3nnc(-c4ccccc4)n3n2)CC1,-6.9,-11.0,1.0,-34.3,-0.2,1.1,-8.2,-8.6,-3.1
Cc1ccccc1Cn1c(=O)n(Cc2ccco2)c(=O)c2ccccc21,7.0,?,0.4,-9.8,1.0,13.7,4.3,10.4,1.4
COc1ccc2[nH]c3c(NCCCN4CCCC4=O)ncnc3c2c1,2.4,-95.6,-2.2,-10.9,2.8,13.2,-1.0,-2.2,-1.0
COc1cccc(CNC(=O)C2CCN(S(=O)(=O)c3cnc[nH]3)CC2)c1,1.8,20.6,4.5,-2.1,2.4,3.9,-7.3,nt,0.4
C=CCn1c(Cc2csc(N)n2)nnc1SCC(=O)Nc1ccccc1C(F)(F)F,1.1,9.4,3.5,12.4,-0.4,-3.9,-9.9,1.3,0.7
CCCn1c(=O)c2ccccc2n2c(=S)[nH]nc12,-0.9,0.0,-7.2,-4.1,14.8,-3.0,2.1,2.0,-1.6
COc1cc(/C=C(\C#N)C(=O)Nc2cccc3ncccc23)cc(OC)c1OC,-2.2,9.2,-0.3,-23.3,0.6,23.6,20.7,6.3,1.5
CC(NC(=O)Nc1cccc([N+](=O)[O-])c1)(C(F)(F)F)C(F)(F)F,-2.1,14.0,-2.9,-31.9,0.4,16.6,2.1,-1.9,0.4
Cc1ccc(N2CC(C(=O)Nc3nc4ccc(S(C)(=O)=O)cc4s3)CC2=O)cc1C (centres undefined),-4.3,17.3,-5.2,-3.2,-0.5,-14.3,-2.0,13.0,1.1
COC(=O)c1cccc2c1-c1ccccc1/C2=N\NC(N)=O,11.2,-1.5,3.0,-37.6,22.0,-1.8,-7.0,2.7,-22.5
N#CCSc1nc2ccccc2c(=O)n1-c1ccccc1,-2.6,38.1,-5.0,-13.8,-3.7,-30.1,-15.2,nt,1.6
O=C(/C=C/c1ccccc1Cl)NCc1ccccc1,-4.7,-25.1,-3.2,-46.2,-1.7,15.3,12.4,5.7,-2.7
CC(=O)Nc1cccc(C(=O)Nc2cccc3ncccc23)c1,4.7,-4.2,-3.9,-7.0,2.0,8.0,-3.1,-4.5,-5.9
COc1ccc2nc3c(cc2c1)c(NC(=O)CC(C)C)nn3CC(C)C,-22.6,16.2,-3.5,-18.6,26.1,-3.3,-3.0,-9.0,-73.3*
CCN(CC)C(=O)CSc1nnc(-c2cc3ccccc3cc2O)n1CC,5.2,3.5,2.9,3.7,2.1,14.6,-1.0,-2.4,-2.3
O=C(N/N=C/c1ccc2c(c1)OCO2)c1ccc(NS(=O)(=O)c2cccs2)cc1,-3.8,-20.8,2.6,-19.6,-0.6,8.2,-0.4,4.3,-0.3
Cc1ccc(-c2cc(C(=O)Nc3ccc4c(c3)OCCO4)c3ccccc3n2)cc1,3.5,-74.3,11.1,-27.1,-0.6,-22.4,-15.0,?,-2.5
CCOCCCNC(=O)c1ccccc1Br,2.0,-14.6,-2.0,0.2,-0.7,17.4,-5.8,-7.2,2.6

# This is a subset. The share of hits here may be higher or lower than overall.
